Screens: PubChem, National Center for Advancing Translational Sciences (NCATS)
2A firefly: Primary qHTS Assay for Foot and Mouth Disease Virus Antivirals against NCGC Sytravon and CBC Compound Libraries: Firefly Luciferase Signal; HEK cells with a luciferase reporter of 2A StopGo recoding; Potency, µM (doses to about 57.5 µM), without a hit: at the top dose signal change, negative = less light; hit rate 0.23% among 120,000; active = well fitted falling curve with a large enough effect; inconclusive = small, poorly fitted or top-dose-only effect; inactive = no such curve, though single readings can be large or run the other way; also: nearly all actives have a fitted effect of over 60% in size; overnight with compound
StopGo RLuc: Primary qHTS Assay for Foot and Mouth Disease Virus Antivirals against NCGC Sytravon and CBC Compound Libraries: Renilla Luciferase Signal. HEK cells with a luciferase reporter of 2A StopGo recoding. Potency, µM (titrated, usually from 57.5 µM), for inactives: at the highest dose signal change, negative = less light. hit rate 0.32% among 120,000. AID 1745857, 2022; active means well fitted falling curve with a large enough effect; inconclusive means small, poorly fitted or top-dose-only effect; inactive means no such curve, though single readings can be large or run the other way; also: nearly all actives have a fitted effect of over 55% in size; overnight with compound
An asterisk follows results filed as active; u = inconclusive; [ ] = another dose, or the depositor's remark. % is scaled to controls: 0 for no effect and ±100 for the full control effect; potency is read from the fitted curve at half-maximal effect.

Sequence of screens – 2A firefly, StopGo RLuc
#1 CC1CCn2c(nc3cc(C(=O)NCCc4ccccc4)ccc32)C1 (stereo not given)
    -3.7%, -1.6%
#2 Cc1cccc(C)c1NC(=O)COC(=O)c1ccc2c(c1)NC(=O)C(C)S2 (stereo not given)
    -12.7%, -5.4%
#3 CCOC(=O)c1ccc(N2C(=O)c3[nH]nc(-c4ccc(C)cc4)c3C2c2ccc(O)c(OCC)c2)cc1 (stereo not given)
    0.0%, 0.0%
#4 Cc1[nH]nc2c1C(c1ccc(C(=O)O)cc1)SCC(=O)N2 (stereo not given)
    -10.3%, -6.5%
#5 Cc1ccc(C(=O)N2CCc3cc(CNC(=O)CSc4ccccc4)ccc32)cc1
    45.6%[activator], 39.3%[activator]
#6 COc1ccc(NC(=O)Cn2nnc(C(=O)NCc3ccc4c(c3)OCO4)c2N)cc1
    12.7%, 3.2%
#7 CCCCN(C)C(=O)c1ccc2c(c1)NC(=O)C(CC(C)C)N2 (stereo not given)
    -19.3%, -5.2%
#8 NC(=O)C1=C(Nc2ccc3ccccc3c2)c2ccccc2S1(=O)=O
    130.3%[activator], 3.1%
#9 Cc1ccc(NC(=O)C2CCN(S(=O)(=O)c3ccc4c(c3)CCCC(=O)N4)CC2)cc1N(C)C
    4.1%, -2.8%
#10 Cc1ccc2c(c1)c1c(c(=O)n(-c3ccccc3C)c(=O)n1CC(=O)c1ccc(Cl)cc1)n2C
    -8.4%, -6.3%

Structures above that have four or more nitrogen atoms, in the order listed:
Sequence of screens – 2A firefly, StopGo RLuc
#6 COc1ccc(NC(=O)Cn2nnc(C(=O)NCc3ccc4c(c3)OCO4)c2N)cc1
    12.7%, 3.2%
#9 Cc1ccc(NC(=O)C2CCN(S(=O)(=O)c3ccc4c(c3)CCCC(=O)N4)CC2)cc1N(C)C
    4.1%, -2.8%

Next section:
Sequence of screens – 2A firefly, StopGo RLuc
#11 CCc1ccc(-c2nc(CSCC(=O)N3CCN(c4ccc(F)cc4)CC3)c(C)o2)cc1
    u, u
#12 COc1cc(OC)c(NS(=O)(=O)c2ccc3c(c2)NC(=O)CCS3)cc1Cl
    -29.0%, 38.1%[activator]
#13 COC(=O)C1(C(F)(F)F)N=C(N2CCCCC2)Oc2c1c(C)nn2-c1ccccc1 (stereo not given)
    -1.8%, -7.6%
#14 COc1ccc(-n2ccnc2SCC(=O)Nc2ccc(F)cc2F)cc1
    -31.1%, -13.9%
#15 CC(=O)Nc1ccc(NC(=O)CSc2nc(C)c(C)o2)cc1
    42.2%[activator], 47.9%[activator]
#16 CCCCS(=O)(=O)CCSCCS(=O)(=O)CCCC
    7.9%, 2.2%
#17 CCN(Cc1ccco1)C(=O)c1cc2cc(C)ccc2[nH]1
    0.0%, -13.1%
#18 COc1ccc(/C=C/c2ccc3cccc([N+](=O)[O-])c3n2)cc1O
    162.5%[activator], u
#19 COc1ccc2c(c1)c1c(c(=O)n(-c3ccccc3C)c(=O)n1CC(=O)NCc1ccc(C)cc1)n2C
    3.8%, -8.6%
#20 CC(NC(=O)CCOc1ccccc1)c1ccccc1 (stereo not given)
    21.7%, 3.8%
#21 COc1cc(-c2noc(-c3cc(C4CC4)[nH]n3)n2)cc(OC)c1OC
    16.3%, 2.6%
#22 CCNC(=S)N/N=C/c1ccccc1F
    51.9%[activator], 9.7%
#23 CCCN(CCC)C(=O)Cn1nnc2sc(-c3ccccc3)cc2c1=O
    -9.6%, -11.0%
#24 Cc1cc(NC(=O)COc2ccc(F)cc2F)n(C)n1
    16.3%, 15.0%
#25 O=C(NCc1ccccc1)c1cccc(N2CCCS2(=O)=O)c1
    -9.9%, 21.8%
#26 COc1ccccc1Cc1nc2ccccc2[nH]c1=O
    21.9%, 34.8%[activator]
#27 Cc1ccc(NC(=O)c2ccoc2)cc1I
    130.0%[activator], 8.9%
#28 CCc1ccccc1NS(=O)(=O)c1ccc(C(F)(F)F)cc1
    -3.2%, 0.0%
#29 CCOC(=O)c1cnc2c(C(F)(F)F)cccc2c1Nc1cccc(C(=O)OC)c1
    -13.7%, -7.6%
#30 CN(C(=O)CSc1nnc(Nc2ccccc2F)s1)c1ccccc1
    150.5%[activator], 27.0%
#31 COc1cc(NC(=O)Cn2c(=O)n(Cc3ccccc3Cl)c(=O)c3cc(OC)c(OC)cc32)cc(OC)c1
    -17.3%, -16.5%
#32 Nc1nc(CN2CCN(C(=O)COc3cccc(F)c3)CC2)nc2ccccc12
    44.4%[activator], -1.6%
#33 CCOc1ccc(NC(=O)c2cnc(N3CCCCC3)c3ccccc23)cc1
    -11.4%, -10.4%
#34 Cc1cc(C)cc(OC(C)CCN2CCC(C(O)(c3ccccc3)c3ccccc3)CC2)c1 (stereo not given)
    u, u
#35 COCC(=O)N1CCN(Cc2nnc(C)o2)CC1
    -7.1%, -3.9%
#36 Cn1c(=O)[nH]c(=O)c2c1ncn2CC(=O)NCc1ccco1
    -5.0%, 0.0%
#37 CCOC(=O)C1CCN(C(=O)COC(=O)c2cn(-c3ccccc3)nc2-c2ccc(Cl)cc2)CC1
    -4.4%, -11.1%
#38 CCOc1ccc(C2NC(=O)NC(C)=C2C(=O)Nc2cccc(C(F)(F)F)c2)cc1OC (stereo not given)
    -4.6%, -4.1%
#39 O=C(CN1CCN(C(=O)CCc2ncc(-c3ccccc3Cl)o2)CC1)Nc1cccc(F)c1
    -1.6%, -5.7%
#40 O=C(c1ccc2c(c1)CCN2S(=O)(=O)c1ccccc1)N1CCN(c2ccc(F)cc2)CC1
    -10.4%, 25.7%
#41 CCN(CC)C(=S)SCCOc1cccc(C)c1
    98.9%[activator], 20.8%
#42 CCOC(=O)c1ccc(NC(=O)C(=O)NCCc2ccc(OC)cc2)cc1
    -8.9%, -4.5%
#43 CCN(CC)Cc1ccccc1CNC(=O)C12CC3CC(CC(NC(C)=O)(C3)C1)C2
    2.9%, 9.5%
#44 CNC(=O)c1cccc(NC(=O)CC2(C(=O)O)CCCCC2)c1
    8.6%, -7.8%
#45 CC(C)C(NC(=O)c1cccc(S(=O)(=O)N(C)C)c1)c1ccc2c(c1)OCCO2 (stereo not given)
    -12.3%, 172.0%[activator]
#46 Cc1cccc(C)c1N1CC(O)=C(c2nc3ccccc3[nH]2)C1=N
    0.0%, 57.5%[activator]
#47 COc1ccccc1C1NC(=O)c2n[nH]c(-c3cccs3)c21 (stereo not given)
    14.9%, 21.0%
#48 CN(CC(=O)NC(N)=O)c1ccc(C(C)(C)C)cc1
    0.0%, -12.8%[1.06 µM]
#49 Cc1ccc(C(=O)O)cc1S(=O)(=O)NCCCN1CCOCC1
    -8.2%, -8.6%
#50 CC(=O)Oc1cccc(C(=O)Nc2ccc(-c3nc4ccccc4o3)cc2)c1
    0.0%, -4.0%
#51 COc1ccc(NC(=O)CSc2nc(=O)n(Cc3ccco3)c3c2CCC3)cc1
    0.8%, 10.7%
#52 COc1cccc(CNC(=O)Cn2ccc3cc(S(=O)(=O)N4CCC(C)CC4)ccc32)c1
    0.8%, 50.3%[activator]
#53 COC(=O)Cc1c(C)c2ccc(OCc3nn[nH]n3)cc2oc1=O
    -3.5%, -10.4%
#54 CC(C)(C)c1ccc(NC(=O)CSc2nnc3scc(-c4ccccc4)n23)cc1
    16.7%, -4.2%
#55 Cc1ccc2nc(N3CCN(C=O)CC3)nc(-c3ccccc3)c2c1
    -8.7%, -5.2%
#56 CCC(C(=O)NCCC(C)C)N(C(=O)Cn1nnc(-c2ccc(C)cc2)n1)c1cccc(O)c1 (stereo not given)
    -16.2%, 13.2%
#57 CCCc1cc(=O)oc2cc(OS(=O)(=O)c3ccc(F)cc3Cl)ccc12
    -5.3%, -7.1%
#58 Cc1ccc(-n2nc3c(N4CCCC(C(=O)NCCc5ccccc5)C4)nnc(C)c3c2C)cc1 (stereo not given)
    25.4%, 38.1%[activator]
#59 CCOC(=O)c1ccccc1NC(=O)N(C(C)C)C1CCN(C(C)=O)CC1
    -7.2%, -8.3%
#60 N#C/C(=C/c1ccc(OC(F)F)cc1)C(N)=S
    6.1%, -3.8%
#61 c1ccc(-c2nn3c(-c4ccc5ccccc5n4)nnc3s2)cc1
    38.0%[activator], -0.5%
#62 CN(C)S(=O)(=O)c1ccc(C(=O)N(Cc2cccnc2)c2nc3c(F)cc(F)cc3s2)cc1
    24.6%, 3.9%

Molecules shown so far that contain an aryl methoxy group:
Sequence of screens – 2A firefly, StopGo RLuc
#6 COc1ccc(NC(=O)Cn2nnc(C(=O)NCc3ccc4c(c3)OCO4)c2N)cc1
    12.7%, 3.2%
#12 COc1cc(OC)c(NS(=O)(=O)c2ccc3c(c2)NC(=O)CCS3)cc1Cl
    -29.0%, 38.1%[activator]
#14 COc1ccc(-n2ccnc2SCC(=O)Nc2ccc(F)cc2F)cc1
    -31.1%, -13.9%
#18 COc1ccc(/C=C/c2ccc3cccc([N+](=O)[O-])c3n2)cc1O
    162.5%[activator], u
#19 COc1ccc2c(c1)c1c(c(=O)n(-c3ccccc3C)c(=O)n1CC(=O)NCc1ccc(C)cc1)n2C
    3.8%, -8.6%
#21 COc1cc(-c2noc(-c3cc(C4CC4)[nH]n3)n2)cc(OC)c1OC
    16.3%, 2.6%
#26 COc1ccccc1Cc1nc2ccccc2[nH]c1=O
    21.9%, 34.8%[activator]
#31 COc1cc(NC(=O)Cn2c(=O)n(Cc3ccccc3Cl)c(=O)c3cc(OC)c(OC)cc32)cc(OC)c1
    -17.3%, -16.5%
#38 CCOc1ccc(C2NC(=O)NC(C)=C2C(=O)Nc2cccc(C(F)(F)F)c2)cc1OC (stereo not given)
    -4.6%, -4.1%
#42 CCOC(=O)c1ccc(NC(=O)C(=O)NCCc2ccc(OC)cc2)cc1
    -8.9%, -4.5%
#47 COc1ccccc1C1NC(=O)c2n[nH]c(-c3cccs3)c21 (stereo not given)
    14.9%, 21.0%
#51 COc1ccc(NC(=O)CSc2nc(=O)n(Cc3ccco3)c3c2CCC3)cc1
    0.8%, 10.7%
#52 COc1cccc(CNC(=O)Cn2ccc3cc(S(=O)(=O)N4CCC(C)CC4)ccc32)c1
    0.8%, 50.3%[activator]
